MDM2 E3 inh: inhibitors of human Mdm2 E3 ubiquitin ligase. Q00987. cell-based MDM2 ubiquitination luciferase reporter, 2 h; 0 = plate control, 100 = twice control, blank-subtracted. signal enhancement, % at 5 µM. 210,000 tested, 0.11% active;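 active = signal enhancement of 30% or more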;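 note: luminescence tracks abundance of the self-degrading MDM2-luciferase fusion protein; higher signal means inhibition of MDM2 E3 ligase activity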
Target sequence (Q00987 whole entry, looked up, the tested form may be a part): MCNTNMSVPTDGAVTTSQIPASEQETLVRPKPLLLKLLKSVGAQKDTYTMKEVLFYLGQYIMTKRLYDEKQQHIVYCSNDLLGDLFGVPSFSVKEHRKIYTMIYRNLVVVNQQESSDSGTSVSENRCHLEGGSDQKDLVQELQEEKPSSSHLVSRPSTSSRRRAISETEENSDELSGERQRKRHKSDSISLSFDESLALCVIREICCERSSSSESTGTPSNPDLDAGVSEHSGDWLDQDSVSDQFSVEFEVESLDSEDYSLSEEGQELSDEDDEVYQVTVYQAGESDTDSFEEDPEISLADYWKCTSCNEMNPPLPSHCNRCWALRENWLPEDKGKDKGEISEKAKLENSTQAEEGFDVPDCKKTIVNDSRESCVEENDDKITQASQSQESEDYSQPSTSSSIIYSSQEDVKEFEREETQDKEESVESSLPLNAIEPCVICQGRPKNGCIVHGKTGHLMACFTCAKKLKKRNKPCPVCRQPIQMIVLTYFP
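test system = mammalian cells stably expressing self-ubiquitinating, self-degrading MDM2 E3–luciferase fusion | quantity = 2000 cells/well | incubation = cell settling 4 h, compound treatment 2 h, both 37 °C | signal = luminescence with SteadyLite reagent, 15 min at room temperature | evaluation = % enhancement relative to plate controls after blank subtraction | benchmarks = plate controls and plate blanks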
RBBP9 inhibitor: blocks human serine hydrolase RBBP9. recombinant RBBP9, FP-Rh probe fluorescence polarization. inhibition, % at 7.94 µM. 220,000 tested, 0.2% active. O75884;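 active = inhibition above the campaign mean of all tested compounds plus 3 SD, cut at about 14% in these data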;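 note: plate controls were DMSO wells with RBBP9 for no effect and wells lacking RBBP9 protein for full effect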
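System: RBBP9 protein | Quantity: 2.5 µM RBBP9 dispensing solution, before mixing | Reagent: FP-Rh probe, 375 nM dispensing solution | Timing: Enzyme-compound preincubation 30 min, then probe labeling 45 min, 25 °C | Measured by: Fluorescence polarization | Read-out: % inhibition | Replication: One well per compound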
NPY-Y1 antag: antagonists of human neuropeptide Y receptor Y1; HEK293-CNG Y1 cells, membrane potential fluorescence; NPY at EC95, then isoproterenol; P25929; 200,000 tested, 1% active; inhibition, % at 3.6 µM; AID 1040;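 active = inhibition above the campaign mean inhibition of all tested compounds plus 3 SD, cut at about 20% in these data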;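 note: 0% = DMSO wells given NPY plus isoproterenol and 100% = isoproterenol alone without NPY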
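Material: HEK293 Y1/CNG channel cell line | Also added: NPY (25 nM), isoproterenol (1 µM), Ro 20-1724 (25 µM) | Compound: One concentration, 3.6 µM, in 0.4% DMSO | Schedule: 3 h dye uptake, 1 h room-temperature compound, 45 min post-isoproterenol | Signal: Membrane-potential fluorescent dye readout | Read-out: % inhibition of NPY effect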
NPY1 pot ag: potentiators or agonists of human neuropeptide Y receptor Y1 | activation, % at 3.6 µM | 220,000 tested, 0.37% active | P25929 | NPY-Y1 expressing cells, potentiator/agonist activation; in the data active = activation above about 33%, passing the limit was not always enough;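 note: cells stimulated with NPY at EC10 then isoproterenol at EC100; 0% = low agonist plus stimulus and 100% = saturating agonist plus stimulus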
p97 ATPase inh: inhibitors of human p97 ATPase | inhibition, % at 8 µM | AID 1481 | P55072 | 220,000 tested, 0.42% active | recombinant p97 ATPase, Kinase-Glo ATP luminescence, 3 h; in the data active = inhibition above about 15%;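 note: 0% = DMSO vehicle and 100% = wells lacking enzyme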
Hck-Nef inh: human Hck-Nef kinase inhibition; inhibition, % at 20 µM; Recombinant Hck-YEEI plus Nef, Z-Lyte FRET kinase assay; 220,000 tested, 0.68% active; AID 463187;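 active = Hck-Nef kinase inhibition above about 50%, limit read from the data; inactive = inhibition below that limit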;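 note: 0% = DMSO with Hck plus Nef and 100% = Hck alone without Nef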
NPY2 pot ag: potentiates or activates human NPY-Y2 receptor; cells expressing NPY-Y2, potentiator/agonist read-out; activation, % at 3.6 µM; 220,000 tested, 0.45% active; P49146; in the data active = activation above about 27%;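 note: cells stimulated with NPY near EC25 plus isoproterenol at EC100; 0% = vehicle plus submaximal agonist and 100% = vehicle plus saturating agonist; some results beyond the cut were filed as inactive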
* hit, by the source's call.

SMILES	MDM2 E3 inh	RBBP9 inhibitor	NPY-Y1 antag	NPY1 pot ag	p97 ATPase inh	Hck-Nef inh	NPY2 pot ag
Cc1cccc(Nc2ccccc2C(=O)OCC(=O)N2CCOCC2)c1C	-5.3	-0.5	-4.9	20.0	-3.4	0.1	25.0
COc1ccc(C(=S)N(C)C)cc1OC	-14.8	0.9	0.9	5.5	3.2	0.4	11.9
COC(=O)C1C2CCC(C2)C1C(=O)OCC(=O)c1ccccc1 (configuration not stated)	0.7	-2.8	-4.6	-4.5	-3.6	0.8	5.0
O=C(N/N=C/c1ccccn1)c1cccc([N+](=O)[O-])c1	9.7	-7.1	10.2	9.6	2.5	23.5	-5.3
COCCN1CN=C(Nc2nc3ccccc3o2)NC1	4.3	-2.9	3.4	3.5	-1.3	0.3	5.5
N#Cc1cc(-c2ccc(Cl)cc2)cnc1Sc1ccccc1	3.4	0.6	3.2	-13.0	2.4	1.7	1.3

Rewritten with values ahead of the structure: entries from further up
MDM2 E3 inh | RBBP9 inhibitor | NPY-Y1 antag | NPY1 pot ag | p97 ATPase inh | Hck-Nef inh | NPY2 pot ag | smiles
9.7 | -7.1 | 10.2 | 9.6 | 2.5 | 23.5 | -5.3 | O=C(N/N=C/c1ccccn1)c1cccc([N+](=O)[O-])c1
-5.3 | -0.5 | -4.9 | 20.0 | -3.4 | 0.1 | 25.0 | Cc1cccc(Nc2ccccc2C(=O)OCC(=O)N2CCOCC2)c1C
3.4 | 0.6 | 3.2 | -13.0 | 2.4 | 1.7 | 1.3 | N#Cc1cc(-c2ccc(Cl)cc2)cnc1Sc1ccccc1

Exported in markdown: entries from further up.
| Compound | MDM2 E3 inh | RBBP9 inhibitor | NPY-Y1 antag | NPY1 pot ag | p97 ATPase inh | Hck-Nef inh | NPY2 pot ag |
| --- | --- | --- | --- | --- | --- | --- | --- |
| O=C(N/N=C/c1ccccn1)c1cccc([N+](=O)[O-])c1 | 9.7 | -7.1 | 10.2 | 9.6 | 2.5 | 23.5 | -5.3 |
| COCCN1CN=C(Nc2nc3ccccc3o2)NC1 | 4.3 | -2.9 | 3.4 | 3.5 | -1.3 | 0.3 | 5.5 |
| N#Cc1cc(-c2ccc(Cl)cc2)cnc1Sc1ccccc1 | 3.4 | 0.6 | 3.2 | -13.0 | 2.4 | 1.7 | 1.3 |

Source: PubChem (several laboratories)

Only part of the results is shown. The share of hits here may be higher or lower than overall.
